# Mtb bLac sens = beta-lactam sensitization of Mtb H37Rv. M. tuberculosis H37Rv growth with meropenem, percent inhibition; hits of this screen are not shown here. inhibition, % at 25 µM. actives 0.27% (n = 330,000). AID 434955;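 active = about 74% or more and at least 40 points above the plate without the antibiotic, then above 30% in a dose series; inconclusive = first-round hits that could not be retested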;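 also: growth measured after seven days incubation then overnight dye step; 0% = bacteria only wells and 100% = bacteria with antibiotic; twin plates without the antibiotic show which effects depend on it; some results filed as inactive read as strong as hits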
# YopH inh = inhibitors of Yersinia enterocolitica YopH tyrosine phosphatase. actives 0.16% (n = 140,000). fluorescence Ex485/Em525. inhibition, %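 (about 10 µM by stock and volumes)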;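 active = inhibition of 50% or more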;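 also: controls were vehicle for no effect and minimum signal wells for full effect; inactives centre near -20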
# Mtb H37Rv = M. tuberculosis H37Rv growth inhibitors, H37Rv strain (AID 1626); inhibition, % at 10 µM; hits with a dose series show IC50 in µM; actives 0.95% (n = 220,000); M. tuberculosis H37Rv growth inhibition; higher % means a stronger effect;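 active = confirmed in a dose series; inconclusive = inhibition above 80% but not taken into the dose series; inactive = below 80% or under 30% at every dose of the series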;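 also: bacteria incubated seven days before Alamar blue readout; 0% = bacteria only wells and 100% = bacteria with antibiotic wells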
# RecA intein inh = inhibitors of M. tuberculosis RecA intein splicing | P9WHJ3 | actives 0.75% (n = 290,000) | cell-free RecA intein splicing, fluorescence | inhibition, %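 (about 9 µM by stock and volumes)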 | AID 2221; in the data active = inhibition above about 30%; inconclusive = no clear call, values can overlap the other calls;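 also: 0% = vehicle wells and 100% = reference inhibitor control wells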
# Target sequence (P9WHJ3 whole entry, looked up): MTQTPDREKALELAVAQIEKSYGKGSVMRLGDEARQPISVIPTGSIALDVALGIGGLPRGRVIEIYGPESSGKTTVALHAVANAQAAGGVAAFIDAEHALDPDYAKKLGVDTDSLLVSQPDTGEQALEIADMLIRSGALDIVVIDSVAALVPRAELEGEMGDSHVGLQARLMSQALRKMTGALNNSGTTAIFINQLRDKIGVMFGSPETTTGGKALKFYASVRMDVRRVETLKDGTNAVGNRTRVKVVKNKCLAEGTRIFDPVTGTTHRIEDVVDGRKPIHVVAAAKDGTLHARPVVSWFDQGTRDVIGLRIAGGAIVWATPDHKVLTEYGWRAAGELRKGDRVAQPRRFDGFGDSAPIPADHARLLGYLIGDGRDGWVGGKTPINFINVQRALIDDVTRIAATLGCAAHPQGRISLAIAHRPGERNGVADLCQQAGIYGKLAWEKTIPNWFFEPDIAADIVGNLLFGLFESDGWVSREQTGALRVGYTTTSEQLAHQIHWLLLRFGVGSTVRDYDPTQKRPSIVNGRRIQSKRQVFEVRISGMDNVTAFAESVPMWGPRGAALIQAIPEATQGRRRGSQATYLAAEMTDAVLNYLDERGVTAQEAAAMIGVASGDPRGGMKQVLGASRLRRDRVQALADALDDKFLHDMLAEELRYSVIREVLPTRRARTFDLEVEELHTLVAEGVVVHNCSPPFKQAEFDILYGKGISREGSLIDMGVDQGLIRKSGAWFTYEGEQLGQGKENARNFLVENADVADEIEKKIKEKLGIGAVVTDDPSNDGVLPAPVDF
# Arbovirus inh = blocks arbovirus infection | actives 0.37% (n = 200,000) | inhibition, % at 10 µM | arbovirus infection cell-based antiviral screen | AID 1251;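 active = inhibition from about 30%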;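 also: bluetongue infection of BSR cells; cell survival read as ATP light after 72 h; 0% = infected wells without compound and 100% = uninfected wells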
# Arbovirus inh repeat = second read-out of Arbovirus inh, no call of its own (marks repeat the call); inhibition, %; measured here: 10K subset replicate screen; many hits read low in the repeat;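 first of two repeat runs on a subset; 0% = infected and 100% = uninfected wells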
# The depositor's hits bear a star; u = inconclusive; x = no result given. Some of the compounds tested (hit frequency here may not be typical).
SMILES,Mtb bLac sens,YopH inh,Mtb H37Rv,RecA intein inh,Arbovirus inh,others
CCOC(=O)C1=C(C)Nc2nc(SC)nn2C1c1ccc(C(=O)OC)cc1 (centres undefined),-11,-30,-1%,1.0,-5,
Cc1ccc(NC(=O)c2ccccc2NC(=O)c2cccs2)cc1,9,x,x,-2.9,x,
CCc1ccc(NCc2ccc(OC)c(Cn3ccnc3)c2)cc1,97,x,x,1.8,x,
CCCCc1nc2sc3c(c2c(=O)[nH]1)CC(C)(C)OC3,-6,x,x,0.7,x,
N#C/C(=C/c1cc(Br)cs1)C(=O)NCC1CCCO1 (centres undefined),0,-16,4%,14,-1,
Cc1ccc(CN(C)CC(=O)Nc2cccc([N+](=O)[O-])c2)o1,-7,x,-2%,0.9,-1,
O=S(=O)(Nc1cccc(-c2ccc3nncn3n2)c1)c1cccc(F)c1,2,x,x,-1.3,x,
Cc1nn(Cc2ccccc2Cl)c(C)c1NC(=O)c1nc2ncccn2n1,4,2,-2%,3.1,3,
O=C(NC1CCCCC1)c1cccnc1C(=O)O,1,-26,-4%,2.6,2,
CC(=O)c1ccc(OCc2cccc(C(F)(F)F)c2)cc1O,2,x,4%,2.0,6,
O=C(CCC(=O)N1CCOc2ccc(Cl)cc21)NCCCN1CCN(c2ccccc2F)CC1,6,x,x,1.0,x,
Cc1ccccc1C(=O)N1CCC(C(=O)NC2CCCCC2)CC1,-8,x,x,1.9,x,

# Of the compounds above, these have a halogen.
SMILES,Mtb bLac sens,YopH inh,Mtb H37Rv,RecA intein inh,Arbovirus inh,others
N#C/C(=C/c1cc(Br)cs1)C(=O)NCC1CCCO1 (centres undefined),0,-16,4%,14,-1,
O=S(=O)(Nc1cccc(-c2ccc3nncn3n2)c1)c1cccc(F)c1,2,x,x,-1.3,x,
Cc1nn(Cc2ccccc2Cl)c(C)c1NC(=O)c1nc2ncccn2n1,4,2,-2%,3.1,3,
CC(=O)c1ccc(OCc2cccc(C(F)(F)F)c2)cc1O,2,x,4%,2.0,6,
O=C(CCC(=O)N1CCOc2ccc(Cl)cc21)NCCCN1CCN(c2ccccc2F)CC1,6,x,x,1.0,x,

# Additional structures:
SMILES,Mtb bLac sens,YopH inh,Mtb H37Rv,RecA intein inh,Arbovirus inh,others
Nc1nc(-c2ccc3c(c2)CCCC3)cs1,-12,-22,-2%,x,-2,Arbovirus inh repeat=-2
N[C@@H](Cc1ccccc1)C(=O)N1CCC(C(=O)NCC(=O)Nc2ccc(F)cc2)CC1,-3,x,x,0.9,x,
C/C(Cc1ccccc1)=N\NC(=O)CNC(=O)c1ccc(C(C)(C)C)cc1,-3,-17,4%,-4.8,-1,
O=C(C/C=N/OCc1c(Cl)cccc1Cl)c1cnc(-c2ccccc2)s1,47,-42,3%,-4.0,0,
CC(NCc1ccc(OCC(N)=O)cc1)C12CC3CC(CC(C3)C1)C2 (centres undefined),-3,x,x,-1.5,x,
COc1ccccc1C(=O)NC(=S)Nc1ccc(N2CCN(C(=O)c3ccco3)CC2)cc1,40,x,x,10.0,x,
COc1ccc(CCNC(=O)c2ccc(CNS(=O)(=O)c3ccc(C(C)(C)C)cc3)cc2)cc1OC,5,-17,-6%,1.7,-2,
O=C(O)CN1C(=O)/C(=C\c2cc(Br)ccc2OCc2ccc(Cl)cc2Cl)SC1=S,1,x,x,15,x,
Cc1c(S(=O)(=O)c2ccccn2)c(N)n(Cc2ccccc2)c1C,-17,x,-4%,3.9,x,
COc1ccccc1N1CCN(C(=O)CCCn2c(=O)[nH]c3ccsc3c2=O)CC1,1,-21,5%,0.3,-5,Arbovirus inh repeat=5
COc1ccc(S(=O)(=O)N(CC(=O)N2CCOCC2)c2cc(Cl)ccc2OC)cc1OC,-2,-53,-8%,-0.5,-1,
CCOC(=O)N1CCC(N(CCOC)C(=O)Nc2ccc(C)c(C)c2)CC1,-1,10,1%,4.4,2,
O=C(Cn1nc(-c2cccs2)ccc1=O)Nc1ccc(Br)cc1,-10,x,x,2.7,x,
CC(=O)N1c2ccc(S(=O)(=O)NCC3CCC(C(=O)N4CCCCC4)CC3)cc2CC1C (centres undefined),-8,x,x,-1.3,x,
O=C1CS/C(=N\N=C\c2ccccc2Cl)N1CC1CC1,-2,x,7%,2.7,x,
CSc1nc2ccc(NC(=O)C3=NN(c4ccccc4)C(=O)CC3)cc2s1,94,x,u,1.9,10,
O=C(c1cc2ccccc2o1)N(Cc1nnc(-c2ccccc2Cl)o1)C1CC1,-12,x,x,5.5,x,
O=C(NCCC(=O)N1CCN(c2ccccc2F)CC1)c1ccco1,-14,x,x,-3.7,x,
CCOc1ccc(/C=N/NC(=O)c2cccc3ccccc23)c(OCC)c1,-4,x,x,0.2,x,
CCOc1ncccc1C(=O)N1CCN(c2ccc(C(F)(F)F)cn2)CC1,-8,x,9%,1.7,7,
CCCCc1nnc(NC(=O)CCSc2ccccc2)s1,-2,10,-4%,-3.4,-3,
Cc1cccc(OC(C)C(=O)N(Cc2cccs2)C2CCS(=O)(=O)C2)c1C (centres undefined),3,-31,-10%,0.2,-1,
CCOc1ccc(N(CC(=O)Nc2ccc(Br)cc2)S(C)(=O)=O)cc1,-2,x,x,-5.7,x,
Cc1ccc(N(C(=O)c2snc(C(N)=O)c2N)C(C(=O)NC2CCCC2)c2ccc(C)o2)cc1 (centres undefined),-4,x,x,0.3,x,
COc1ccc(C[C@H]2CN3C(=NC[C@@H]3Cc3ccc(O)cc3)N2C[C@H](C)NC(=O)CCC2CCCCC2)cc1,100,x,26%,3.0,x,
Cc1ccccc1C1NC(=O)Cc2ccccc21 (centres undefined),-15,-24,6%,1.1,-3,
O=C(c1ccco1)N1CCN(C(c2ccc(F)cc2)c2nnnn2CC2CCCO2)CC1 (centres undefined),-10,-44,-5%,4.7,6,
O=C(CCC(=O)N1CCN(S(=O)(=O)c2ccccc2)CC1)c1cccs1,1,-29,-6%,x,8,
Cc1ccc(S(=O)(=O)c2ccc(Cl)cc2)cc1S(N)(=O)=O,-1,x,x,-1.1,x,
COc1cc(/C=C/C(=O)c2c(O)ccc3c(C)cc(=O)oc23)ccc1O,99,11,69%,-1.5,-19,
CSc1sc(C(=O)NN)c2c1C1(CCC2)SCCS1,1,x,1%,12,x,
Cc1cc(Nc2ccc(Cl)cc2)nc(-c2ccccc2O)n1,6,x,x,-4.7,x,
NS(=O)(=O)c1ccc(CCNC/C=C/c2ccccc2)cc1,-6,x,x,-2.2,x,
CCN(CC)S(=O)(=O)c1ccc2c(c1)N(CC(=O)NCc1ccco1)C(=O)CO2,-6,x,1%,-1.3,x,
Cc1cc(C)cc(N2CC(C)(C)C2=O)c1,2,x,-6%,-3.8,0,
CCc1nnc(NC(=O)C2CCN(C(=O)NC3CCCCC3)CC2)s1,2,-3,x,-1.0,12,
CCN(CC)C(=O)COc1ccc(/C(C)=N/NC(=O)c2ccccc2O)cc1,-5,x,-14%,0.8,-6,
COc1ccc(Nc2nc(C(=O)NCCCN3CCOCC3)cs2)cc1,-16,-32,2%,x,3,
Cc1ccc(NC(=O)c2cc3cccc([N+](=O)[O-])c3[nH]2)cc1,-3,x,5%,x,x,
COc1ccccc1CNC(=O)c1cc(-c2ccccc2)nn1CC1CC(c2cccnc2)=NO1 (centres undefined),-11,x,-6%,1.5,x,
COc1cc(C(C2C(=O)CC(C)(C)CC2=O)C2C(=O)CC(C)(C)CC2=O)ccc1OC(C)=O,13,x,x,2.0,x,
COc1ccc(NC(=O)C2CCN(C(=O)c3ccc(OC)cc3)CC2)cc1,-2,-13,-2%,0.1,-1,
CS/C(=C\[N+](=O)[O-])Nc1ccc(F)cc1,91,-24,3%,23,-11,
COc1ccccc1OCC(=O)Nc1nc2c(s1)CCCC2,-5,x,x,2.6,x,
CCOc1ccc(-n2c(C)c(C(C)=O)c3cc(OCC(N)=O)ccc32)cc1,-1,x,-7%,8.6,-8,
COc1cc(/C=N/NC(=O)c2cc(C)oc2C)ccc1O,-3,x,1%,-5.3,1,
Cc1ccc(CSc2ccc(-c3ccc4c(c3)OCO4)nn2)cc1,-7,-10,3%,-2.4,-39,
COc1ccc(NC(=O)COC(=O)CCc2ccccc2)c(OC)c1,7,x,x,-1.5,x,
Nc1ccc(-c2nnc(-c3ccc(-c4ccccc4)cc3)o2)cc1,53,-32,3%,-1.3,-19,
COc1ccc(-n2nc3c(c2NC(=O)C2CC2)CS(=O)(=O)C3)cc1,2,x,x,-0.4,x,
O=C(NC1CCCc2ccccc21)c1cc(Cl)ccn1 (centres undefined),9,x,x,5.5,x,
Cc1cc2ncc(C(=O)N=CN(C)C)cn2n1,7,x,3%,1.0,-4,
O=C(CSCc1ccc(Cl)cc1)NCC1CCCO1 (centres undefined),-6,-43,-14%,-2.6,-6,Arbovirus inh repeat=0
Cn1c(=O)cc(OCCCC(=O)NC2CCCC2)c2ccccc21,2,-12,-4%,-1.3,4,
Cc1cccc(C(=O)Nc2cc(Cl)ccc2-n2cncn2)c1[N+](=O)[O-],0,x,x,-0.3,x,
CN(C)S(=O)(=O)c1cccc(NC(=S)N/N=C/c2cc(Br)ccc2O)c1,25,x,2%,25,x,
COC(=O)c1ccccc1NC(=O)Cn1c(CCC(=O)O)ccc1-c1cccs1,30,-16,1%,-2.6,-1,
CC(C)(C)c1ccc(C(=O)NNc2ncccc2-n2cccc2)cc1,-3,x,-6%,5.5,x,
O=S(=O)(Nc1ccccc1Cl)c1ccc2[nH]c(=S)oc2c1,-3,x,x,11,x,
COc1ccc(CCNC(=O)c2ccc(Cl)cc2Cl)cc1,3,2,16%,-2.2,-6,
# Other entries follow:
SMILES,Mtb bLac sens,YopH inh,Mtb H37Rv,RecA intein inh,Arbovirus inh,others
CCCC(C)NC(=O)C1CCN(C(=O)C2CC(=O)N(c3ccc(C)cc3)C2)CC1 (centres undefined),-14,x,x,-1.4,x,
Cc1cc(NC(=O)c2ccc3c(c2)OCO3)ccc1NC(=O)c1ccco1,-2,-8,8%,0.6,-3,
COc1ccc(OC)c(C(=O)COC(=O)C2CC3CCCC(C2)C3=O)c1 (centres undefined),-8,3,-5%,0.7,6,
Cc1cc(=O)oc2cc(OCC(=O)c3ccccc3)ccc12,3,x,x,-1.2,x,
COC(=O)CSc1nc2sc3c(c2c(=O)[nH]1)CCC3,-9,x,-14%,-2.4,x,
CS(=O)(=O)N(CC(=O)N1CCCCCC1)c1ccc(Cl)cc1,3,x,x,-0.1,x,
CC1CCN(c2ccc(NC(=S)NC(=O)c3ccco3)cc2)CC1,95,-32,26%,-4.0,5,
COc1ccc(-n2cnc3ccccc32)cc1,9,-26,2%,x,10,
O=C(NCc1ccccc1Br)c1ccncc1,-10,x,x,2.1,x,
O=C(NCc1cccnc1)c1ccc(CS(=O)(=O)c2ccc(Br)cc2)o1,-6,-40,-2%,1.7,3,Arbovirus inh repeat=4
O=c1[nH]c(CCl)nc2cc(-c3ccc(F)cc3)sc12,100,x,x,36*,x,
C=CCNC(=O)COc1ccc(Br)cc1Cl,-23,-32,-6%,1.5,1,Arbovirus inh repeat=-1
CN(Cc1cccc(-n2cccn2)c1)C(=O)CCc1nnc(C2CCCCC2)o1,3,x,-1%,-2.8,4,
COc1cc2nc(CCc3ccccc3)oc(=O)c2cc1OC,5,x,-3%,1.0,6,
Cc1ccccc1C1=NC(c2ccc(F)cc2F)ON1 (centres undefined),-9,-28,16%,-2.0,-3,
COC(=O)C(NC(=O)c1ccccc1Cl)(Nc1ncc(S(=O)(=O)c2ccc([N+](=O)[O-])cc2)s1)C(F)(F)F (centres undefined),u,-17,0%,1.6,-2,
COc1ccc(CNC(=O)CC(NC(N)=O)c2ccccc2Cl)cc1OC (centres undefined),-6,x,x,2.9,x,
C=CCn1c(SCC(=O)Nc2ccc(F)cc2F)nc2c([nH]c3ccccc32)c1=O,2,x,x,0.0,x,
CCNc1nc(Oc2ccc(Cl)cc2Cl)cc(C(F)(F)F)n1,8,4,3%,1.3,-1,
O=C(c1cc2ccccc2oc1=O)N(Cc1ccco1)CC1CCCO1 (centres undefined),1,2,-6%,-2.2,2,
CC(=O)Nc1ccc(NC(=O)c2ccc(CN3CCc4ccccc4C3)cc2)cc1,-4,x,x,-2.2,x,
COC(=O)Nc1ccc(S(=O)(=O)N2CCC(C(=O)N3CCCC(C)C3)CC2)cc1 (centres undefined),2,x,3%,2.1,11,
CCCCOc1ccc(C(=O)N/N=C/c2ccc(OCCN3CCCCC3)c(OC)c2)cc1,98,-21,69%,-5.6,-34,
COc1cccc(C(=O)Nc2ccc(-c3nc4ccccc4o3)c(O)c2)c1,100,-46,8.7µM*,0.9,23,Arbovirus inh repeat=8
CCn1c(SCC(=O)Nc2ccc(Br)cc2)nc2sc3c(c2c1=O)CCN(C)C3,1,x,x,0.3,x,

# Screening data from PubChem.
